Screening data (PubChem)
Mtb growth – Confirmatory growth inhibition assay against Mycobacterium tuberculosis H37Rv, potency (AID 1949). 100,000 tested, 1.6% active. one-dose inhibition, % at 10 µg/mL; IC50 in µg/mL for titrated hits. most inactive calls were filed without a number and no value below 0 was filed;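 active = confirmed in a dose series; inconclusive = about 50% or more but not retested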;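 note: bacteria grown 7 days with compound before Alamar blue readout; 0% = untreated bacteria and 100% = reference antibiotic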
Active calls of the source: *; i = inactive; u = inconclusive. Not all compounds are listed; rates above refer to the full screens.

SMILES	Mtb growth
COc1cccc(OC)c1OCCOc1ccc([N+](=O)[O-])cc1	3%
CCC(C)c1ccccc1OCC(=O)Nc1cccc(C(=O)O)c1 (stereo not given)	i
COCC(=O)Nc1nc(-c2ccc(C)c(C)c2)cs1	1%
COc1ccc(C(=O)NC(=S)Nc2ccc(NC(=O)c3ccco3)c(C)c2)cc1Br	14%
O=C(Cn1nnc2ccccc21)c1ccc(-c2ccccc2)cc1	i
Cc1ccc(C)c(OCCCN2CCNCC2)c1	i
CC(C)CCn1c(N2CCN(c3ccccc3)CC2)nc2c1c(=O)n(C)c(=O)n2C	0%
O=C(Nc1ccccc1Oc1ccccc1)C1CC1	i
CCOc1ccc(C)cc1S(=O)(=O)NCC1CCCO1 (stereo not given)	i
Cn1c(CNC(=O)c2ccco2)nnc1SCC(=O)c1ccc(F)cc1	i
O=C(NCC12CC3CC(C1)CC(CNC(=O)N1CCCC1)(C3)C2)N1CCCC1	i
Cc1c(C#N)c2ccccc2n1CC(=O)NCC1CCCO1 (stereo not given)	i
N#CCn1cnc2scc(-c3ccccc3)c2c1=O	8%
O=C(Nc1ccccc1C(F)(F)F)C1CCN(C(=O)c2ccccc2Cl)CC1	i
O=S(=O)(CCSc1nc2ccccc2o1)c1nc2ccccc2s1	11µg/mL*
Cc1ccc(C(=O)O)cc1S(=O)(=O)N1CCC(C(=O)O)CC1	i
COc1ccc(C2CC(=O)Nc3ccc4ccccc4c32)c(OC)c1 (stereo not given)	i
CCOc1ccc(C(=O)Nc2cccc(-c3nc4cc(C)cc(C)c4o3)c2)cc1[N+](=O)[O-]	5%
COC(=O)c1ccccc1NC(=O)CN(c1cccc(Cl)c1)S(=O)(=O)c1ccc(Cl)cc1	2%
CCc1cc(=O)oc2cc(OC(C)c3ccccc3)ccc12 (stereo not given)	9%

17 consecutive entries out of the list so far, quoted:
SMILES	Mtb growth
COc1cccc(OC)c1OCCOc1ccc([N+](=O)[O-])cc1	3%
CCC(C)c1ccccc1OCC(=O)Nc1cccc(C(=O)O)c1 (stereo not given)	i
COCC(=O)Nc1nc(-c2ccc(C)c(C)c2)cs1	1%
COc1ccc(C(=O)NC(=S)Nc2ccc(NC(=O)c3ccco3)c(C)c2)cc1Br	14%
O=C(Cn1nnc2ccccc21)c1ccc(-c2ccccc2)cc1	i
Cc1ccc(C)c(OCCCN2CCNCC2)c1	i
CC(C)CCn1c(N2CCN(c3ccccc3)CC2)nc2c1c(=O)n(C)c(=O)n2C	0%
O=C(Nc1ccccc1Oc1ccccc1)C1CC1	i
CCOc1ccc(C)cc1S(=O)(=O)NCC1CCCO1 (stereo not given)	i
Cn1c(CNC(=O)c2ccco2)nnc1SCC(=O)c1ccc(F)cc1	i
O=C(NCC12CC3CC(C1)CC(CNC(=O)N1CCCC1)(C3)C2)N1CCCC1	i
Cc1c(C#N)c2ccccc2n1CC(=O)NCC1CCCO1 (stereo not given)	i
N#CCn1cnc2scc(-c3ccccc3)c2c1=O	8%
O=C(Nc1ccccc1C(F)(F)F)C1CCN(C(=O)c2ccccc2Cl)CC1	i
O=S(=O)(CCSc1nc2ccccc2o1)c1nc2ccccc2s1	11µg/mL*
Cc1ccc(C(=O)O)cc1S(=O)(=O)N1CCC(C(=O)O)CC1	i
COc1ccc(C2CC(=O)Nc3ccc4ccccc4c32)c(OC)c1 (stereo not given)	i

Next structures:
SMILES	Mtb growth
Cc1ccc(-c2cc3nc(C)cc(=O)n3[nH]2)cc1	i
Cc1ccc(-c2nc3ccccc3s2)cc1NC(=S)NC(=O)c1cccc2ccccc12	u
CCOC(=O)Cc1c(C)nc(Cc2ccc(OC(C)C)cc2)[nH]c1=O	i
O=c1cnnc(SCc2c(F)cccc2Cl)[nH]1	i
CC(=O)c1cccc(NC(=O)COc2cc(Cl)ccc2Cl)c1	i
CC(=O)N1CCN(C(=S)c2ccc(C(C)(C)C)cc2)CC1	i
CCN1C(=O)/C(=C\c2cccc(OCc3cccc(C)c3)c2)SC1=S	i
C=CCSc1n[nH]c(-c2ccccc2OCCC)n1	3%
Cc1c(Cl)cccc1-n1c(-c2ccncc2)n[nH]c1=S	i
CCOc1ccc2nc(SCC(=O)NCc3ccc4c(c3)OCO4)[nH]c2c1	i
O=C(Nc1ccccc1C(=O)O)c1cccnc1	i
CCCC(=O)NC(=S)Nc1ccc2oc(-c3cccc4c(Cl)cccc34)nc2c1	i
COc1ccccc1-c1nc(S(=O)(=O)c2ccccc2)c(N2CCCCC2)o1	i
O=c1oc(-c2ccccc2F)nc2scc(-c3cccs3)c12	12%
COCCOCCn1cnc2ccccc21	i
COc1ccc(CC2(CCc3ccncc3)C(=O)NC(=O)N(c3ccc(Cl)cc3)C2=O)cc1OC (stereo not given)	i
COc1ccc(F)cc1S(=O)(=O)N1CC(C)CC(C)C1 (stereo not given)	i
CCC1CCC(=O)C(C2(O)C(=O)Nc3ccc(Br)cc32)C1 (stereo not given)	i
CC(C)C(=O)Nc1cccc(C(=O)OCc2ccc(Cl)c(Cl)c2)c1	3%
O=Cc1ccc(OC(=O)c2ccc(F)cc2)c(Cl)c1	13%
O=C(c1ccc2c(c1)OCO2)N1CCN(c2ccccn2)CC1	i
N/C(=N\OC(=O)CC1CCCCC1)c1ccc(Cl)cc1	i
Cc1ccc(CSc2nc(-c3cccs3)ccc2C#N)cc1	1%
CS(=O)(=O)N1CCN(c2ccnc3cc(Cl)ccc23)CC1	0%
CCC(C)Cn1c(S(=O)(=O)O)nc2ccccc21 (stereo not given)	i
COC(=O)C1=CNC=C(C(=O)OC)C1c1ccc(Cl)cc1	1%
Cc1nc2ccc(I)cc2c(=O)n1-c1ccccc1C(F)(F)F	1%
CN(CC(=O)N1CCN(c2ccccc2)CC1)S(=O)(=O)c1ccccc1	i
O=C(COc1ccccc1)NC(=S)Nc1ccc(S(=O)(=O)N2CCCCCC2)cc1	i
Cc1cc(NCCN2CCOCC2)c2ccc3ccccc3c2n1	i
COc1ccc(OC2C(=O)N(Cc3ccc(F)cc3)C2c2cc(OC)c(OC)c(OC)c2)cc1 (stereo not given)	i
COc1ccc(S(=O)(=O)NCC2CCCO2)cc1N(C)S(=O)(=O)c1ccccc1 (stereo not given)	i
CCC(Oc1ccccc1)C(=O)Nc1ccccc1C(C)CC (stereo not given)	i
COc1ccc(/C(N)=N/OC(=O)c2cc(Cl)ccc2OC)cc1	i
COc1cc(OC)c(C(=O)Nc2cc(C)on2)cc1OC	i
O=C(CCn1nc(C(F)(F)F)cc1C1CC1)NCCC1=CCCCC1	i
COc1ccccc1C(=O)Nc1ccccc1C(=O)NCc1ccccc1	i
CC(C)OCCCNC(=O)c1ccncc1	i
COC(=O)C1=CN(CC2CCCO2)C=C(C(=O)OC)C1c1ccc(Cl)cc1 (stereo not given)	i
CC1CC(C)CN(CCCOc2ccc(Cl)cc2)C1 (stereo not given)	i
COc1ccc(NS(=O)(=O)C(F)(F)F)cc1	i
Cc1ccc(-n2c3c(cc(C(=O)Nc4ccc(C)cc4C)c2=O)C(=O)CC(C)(C)C3)cc1	i
Clc1ccc(OCCCc2nc(-c3ccncc3)no2)c(Cl)c1	u
O=C(NC(=O)c1ccccc1)Nc1ccc(SC(F)(F)F)cc1	7%
CCN1C(=O)C(O)(CC(=O)c2ccc3c(c2)OCO3)c2ccccc21 (stereo not given)	i
Cc1ccc(NC(CNS(=O)(=O)c2ccc(Cl)cc2)c2ccccc2)cc1 (stereo not given)	5%
O=C1CC(C(=O)Nc2nc3ccccc3s2)C(c2ccccc2)O1 (stereo not given)	i
N#Cc1ccccc1COC(=O)c1cc(-c2ccc(C=O)o2)ccc1Cl	i
CCn1c(/C=C/c2cc(Br)ccc2OC)nc2ccccc2c1=O	i
O=C(Nc1nc2ccc(Cl)cc2s1)c1cccc(Cl)c1Cl	i

Reprinted from the part before: 2 entries, followed by the next part.
SMILES	Mtb growth
CCn1c(/C=C/c2cc(Br)ccc2OC)nc2ccccc2c1=O	i
O=C(Nc1nc2ccc(Cl)cc2s1)c1cccc(Cl)c1Cl	i
CCOC(=O)c1cnn(Cc2ccc(C)cc2)c1N	2%
C=CCn1c(-c2ccccc2)c(NC(=O)c2ccccc2)sc1=Nc1cccc(C(F)(F)F)c1	2%
CCc1ccc(N(CC(=O)Nc2ccc(Cl)c(C(=O)OC)c2)S(C)(=O)=O)cc1	i
CN(C)CCNC(=O)c1ccccc1I	i
COc1ccc(S(=O)(=O)N2CCC(C(=O)Nc3ccc(Cl)cc3Cl)CC2)cc1	0%
S=C(Nc1ccc2c(c1)OCO2)N1CCN(c2ccccn2)CC1	i
N#Cc1ccccc1NC(=O)C(CC(=O)O)NCc1ccccc1 (stereo not given)	2%
CCOC(=O)c1c(NC(=O)C(C)Oc2ccccc2)sc2c1CCCCC2 (stereo not given)	i
CCOC(=O)c1c(-c2ccccc2)oc2cc(Br)c(O)cc12	11%
CCOc1ccc(C(=O)NCc2cccs2)cc1	i
CC(=O)Nc1ccccc1NS(=O)(=O)c1cccs1	i
S=C(NCc1ccccc1)Nc1c(Cl)cccc1Cl	i
Cc1ccc(Cl)cc1NC(=O)c1ccccc1C(=O)Nc1cc(Cl)ccc1C	i
Nc1nnc(SCc2coc(-c3ccc(Cl)cc3)n2)s1	0%
COc1cc(S(=O)(=O)NC(c2ccccc2)c2ccccc2)ccc1Cl	i
COc1cc(C)c(S(=O)(=O)NC(C)c2ccccc2)cc1C (stereo not given)	1%
CCOC(=O)Cc1c(C)nc2c(-c3ccccc3)c(C)[nH]n2c1=O	i
O=C(c1cc(Br)ccc1Cl)N1CCOCC1	i
O=C(Oc1ccc(-c2nnco2)cc1)N1CCOCC1	i
Fc1ccc(Cn2cnc(NC(=S)Nc3cccc4ccccc34)n2)cc1	2%
COc1ccc(Cl)cc1N1CCN(CCNC(=O)Nc2ccccc2C)CC1	46%
Cc1ccc(Nc2nc(C)cc(C)c2C(N)=O)cc1	2%
O=C(C1=C(O)C(=O)N(CC2CCCO2)C1c1cccc(Cl)c1)c1ccco1 (stereo not given)	8%
CCOc1ccccc1C(=O)Nc1nnc(CC(C)(C)C)s1	i
COc1ccc(OC)c(NC(=S)NNC(=O)CC23CC4CC(CC(C4)C2)C3)c1	1%
C=CCN(CC=C)C(=O)Nc1ccc2nc(-c3ccccn3)c(-c3ccccn3)nc2c1	i
CCOc1ccc(Nc2nc(-c3sc(C)nc3C)cs2)cc1	3.4µg/mL*
CS(=O)(=O)c1ccc(SCC(=O)Oc2ccc(C3CCCCC3)cc2)c([N+](=O)[O-])c1	3%
CCOc1cccc(OCCCn2cnc3ccccc3c2=O)c1	1%
CN(C)CCCNC(=S)Nc1cccc(C(F)(F)F)c1	i
C=CCn1c(SCC(=O)N2CCCc3ccccc32)nc2ccccc2c1=O	0%
CN1CCN(C(=O)Cn2nc(-c3ccc(Cl)cc3)c3ccccc3c2=O)CC1	i
CCOC(=O)c1c(NC(=S)NC(=O)c2ccc(C)cc2C)sc2c1CCCC2	i
O=C(CSc1nnc(-c2ccncc2)n1-c1ccccc1)c1ccc(Cl)cc1	i
O=C(Nc1ccc(N2CCN(Cc3ccccc3)CC2)cc1)c1cccc(Cl)c1Cl	4.5µg/mL*
CCC(Oc1ccccc1)C(=O)N1CCCCCC1 (stereo not given)	i
O=C(Nc1nnc(COc2ccc(Cl)cc2)s1)c1ccco1	i
COCCn1c(-c2ccccc2)nc(=S)c2c1CC(C)(C)OC2	i
CCOC(=O)CSc1n[nH]c(-c2ccc(Cl)cc2)n1	3µg/mL*
O=C(c1cccc(F)c1F)N1CCN(c2cc(N3CCCC3)c(F)cc2[N+](=O)[O-])CC1	i
CCCC12CN3CC(C)(CN(C1)C(=O)c1ccccc1C3=O)C2=O	i
COc1ccc(C2OC(=O)C(C)(C)C(=O)C2(C)C)cc1 (stereo not given)	i
C=CCN(CC=C)C(=S)Nc1ccc(C(=O)OCC)cc1	i
C=CCSc1nnc(COc2ccc(Br)cc2)n1-c1ccccc1	i
COc1ccc(/C=C2\CCCC3=C2NC(=S)NC3c2ccc(OC)c(OC)c2)cc1OC (stereo not given)	i
CCC(=O)Nc1cc(-c2nn(CC(=O)N3CCCCC3)c(=O)c3ccccc23)ccc1N1CCOCC1	i
CC(=O)Nc1cc(Br)ccc1O	i
CCOC(=O)C1=C(C)N=c2s/c(=C/c3ccccc3F)c(=O)n2C1c1cccs1 (stereo not given)	i
O=C(CCCCC(=O)Nc1ccc(F)cc1F)Nc1ccc(F)cc1F	i
CCOC(=O)c1ccc(N2NC(=O)/C(=C/c3ccc(OC(=O)c4ccco4)c(OC)c3)C2=O)cc1	i
Next part.
SMILES	Mtb growth
O=C(Nc1ccc2oc(-c3cccc(F)c3)nc2c1)c1cccc(Cl)c1Cl	32%
CCCCC(CC)C(=O)NC1CCC(NC(=O)C(CC)CCCC)CC1 (stereo not given)	i
O=C(COc1ccc2c3c(c(=O)oc2c1)CCCC3)Nc1cccc(Br)c1	i
COc1cc(CNCC(C)C)c(Br)cc1OCc1ccccc1Cl	3%
Cc1ccc(N(CC(=O)Nc2cccnc2)S(=O)(=O)c2ccc(F)cc2)cc1	5%
O=C(CSc1ncn(-c2ccccc2)n1)Nc1nnc(-c2ccccc2)s1	i
COC(=O)c1ccccc1NC(=O)c1nc(SCc2ccccc2)ncc1Cl	i
COc1cc(C(=O)N(Cc2cc3ccccc3[nH]c2=O)CC(C)C)cc(OC)c1OC	i
Cc1cccc2sc(NC(=O)c3ccc([N+](=O)[O-])cc3Cl)nc12	19µg/mL*
C=CCSc1nnc2c(n1)OC(C)=Nc1ccc(Br)cc1-2	i
Cc1ccc(SC(C)C(=O)NCc2ccncc2)cc1 (stereo not given)	i
CCOc1ccc(NC(=S)Nc2cnn(Cc3cccc(OC)c3)c2)cc1	i
Cc1ccc(CN2C(=O)c3oc4cc(C)c(C)cc4c(=O)c3C2c2cccc(Br)c2)cc1 (stereo not given)	i
Cc1cc(=O)[nH]c(SCCOc2ccc(Cl)cc2)n1	i
CN1C(=O)c2ccc(NC(=O)c3sc4cc(Cl)ccc4c3Cl)cc2C1=O	i
CCCCN(CC)C(=O)c1ccc(-c2ccccc2)cc1	6%
CCOC(=O)c1cc(-c2ccccc2)sc1NC(=O)c1ccccc1Br	i
Cc1ccc(CC(=O)NCc2cccnc2)cc1	2%
COc1cccc(NC(=O)Cc2nnc(SCC(=O)NC(C)c3ccccc3)n2C)c1 (stereo not given)	i
O=C(Nc1ccccn1)C1CC(=O)N(c2ccccc2)C1 (stereo not given)	i
O=C(c1c(F)c(F)c(F)c(F)c1F)N1CCN(CCO)CC1	i
